BJeLR viability: BJeLR cell viability reduction. BJeLR fibroblasts viability, CellTiterGlo ATP luminescence, 48 h; HRASV12, hTERT and SV40 LT/ST transformed. viability loss activity score, % (test concentration not listed). hit rate 0.64% among 30,000. AID 2275; in the data active = viability loss activity score above about 50%; about a fifth of its hits are not listed in these tables;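 note: higher score means fewer live cells and less ATP luminescence; stock transfer was 50 or 100 nL into about 30 µL; 0% = vehicle wells and 100% = a reference killing control; one replicate is shown; the record names a cut of 85%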
A1 inh: inhibitors of A1 | MEF A1-2A-BIM cells, caspase-Glo luminescence, 3 h; percent of clofoctol signal, DMSO as zero | caspase activation, % (no concentration beside the values) | hit rate 0.51% among 21,000 | AID 2241;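 active = most replicate scores above 10, or exactly half above 10 with mean activity above 10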;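 note: effector caspase 3 and 7 activity cleaving a DEVD luciferin substrate; 50 nL library stock added to about 30 µL; numbers are from one replicate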
An asterisk follows results filed as active; . = no result given. An excerpt (hit frequency here may not be typical).

SMILES	BJeLR viability	A1 inh
C[C@H](CO)N1C[C@H](C)[C@H](CN(C)S(C)(=O)=O)Oc2ccc(NC(=O)C3CCCCC3)cc2C1=O	-1.5	-0.5
CNC[C@H]1Oc2c(NC(=O)NC3CCCCC3)cccc2C(=O)N([C@@H](C)CO)C[C@@H]1C	-2.8	.
CCOC(=O)C(C)Sc1nnc(Cn2c(=O)sc3ccccc32)n1-c1cccc(Cl)c1 (stereo unspecified)	1.1	-0.4
CCOC(=O)C1=NNCC1C(=O)OCC (stereo unspecified)	-1.1	-0.8
Cc1ccc(S(=O)(=O)N(C)C[C@H]2Oc3c(NS(=O)(=O)c4ccc(Cl)cc4)cccc3C(=O)N([C@@H](C)CO)C[C@H]2C)cc1	-4.5	.
Cc1ccc(S(=O)(=O)Nc2cccc3c2O[C@@H](CN(C)C(=O)Nc2ccc(C(F)(F)F)cc2)[C@H](C)CN([C@H](C)CO)C3=O)cc1	-2.3	.
O=c1cc(-c2ccccc2)[nH]c(=S)[nH]1	5.3	0.4
C[C@@H]1CN([C@@H](C)CO)C(=O)c2cc(NC(=O)Nc3ccccc3)ccc2O[C@H]1CN(C)Cc1ccc2c(c1)OCO2	-3.5	0.6
O=c1cc(-c2ccccc2)nc2scc(-c3ccc(Cl)cc3)n12	-2.6	0.1
CC(C)NC(=O)N(C)C[C@H]1Oc2ccc(NC(=O)Nc3cccc4ccccc34)cc2C(=O)N([C@@H](C)CO)C[C@H]1C	-1.1	-0.7
O=C1/C(=C/N2CCCCC2)Nc2ccccc21	-6.5	.
CCOC(=O)N1CCN(C(=O)c2ccc3c(=O)n(CC4CCCO4)c(=S)[nH]c3c2)CC1 (stereo unspecified)	3.2	0.1
Cc1[nH]n(-c2ccccc2)c(=O)c1/C=C1\SC(=S)N(Cc2ccccc2)C1=O	-4.9	0.5
C[C@@H]1CN([C@H](C)CO)C(=O)c2cccc(NC(=O)Nc3cccc4ccccc34)c2O[C@@H]1CN(C)C	5.8	.
Cc1noc(C)c1NC(=O)N(C)C[C@H]1Oc2c(NS(=O)(=O)c3ccc(Cl)cc3)cccc2C(=O)N([C@@H](C)CO)C[C@@H]1C	1.8	.
C[C@@H]1CN([C@H](C)CO)C(=O)c2cccc(NS(C)(=O)=O)c2O[C@@H]1CN(C)S(C)(=O)=O	1.6	.
CCOc1ccc(NC(=O)CCNC(=O)c2cn(-c3cccc(OC)c3)c(=O)c3ccccc23)cc1	1.2	-0.6
COc1ccc(NS(=O)(=O)Cc2ccccc2)cc1	5.3	0.4
COc1ccc(OCCn2c(=O)oc3ccccc32)cc1	1.9	0.3
CC1(C)C(=O)C=C[C@@]2(C)C1CC(=O)[C@]1(C)C2CC[C@@]2(C)[C@H](c3ccoc3)OC(=O)[C@H]3O[C@]321 (stereo partly specified)	-8.2	-0.6
C=CCn1c(-c2ccccc2)csc1=Nc1ccc(O)cc1	-1.0	.
Cc1cc(C)c(-n2c(SCC(=O)c3ccc(C#N)cc3)n[nH]c2=O)c(C)c1	-3.2	1.0
C[C@@H]1CN([C@@H](C)CO)C(=O)c2cccc(NC(=O)c3nc4ccccc4s3)c2O[C@H]1CN(C)C(=O)Nc1ccc2c(c1)OCO2	-2.7	.
Cc1noc(C)c1S(=O)(=O)Nc1ccc2c(c1)C(=O)N([C@@H](C)CO)C[C@@H](C)[C@H](CN(C)Cc1ccc(Cl)c(Cl)c1)O2	0.5	-0.2
O=C1CSC(c2ccc(Cl)cc2)N1Nc1nc(Nc2ccccc2)nc(N2CCCCC2)n1 (stereo unspecified)	-7.3	1.9
Carrying on:
SMILES	BJeLR viability	A1 inh
Cc1ccccc1NC(=O)/C=C/c1ccc2c(c1)OCO2	9.5	-7.3
CCN(CC)S(=O)(=O)c1ccc(Cl)c(C(=O)N2c3ccccc3Sc3ccccc32)c1	1.0	0.0
COc1ccc(S(=O)(=O)N(C)C[C@@H]2Oc3ccc(NC(=O)CCN4CCOCC4)cc3C(=O)N([C@@H](C)CO)C[C@H]2C)cc1	4.4	-0.5
C[C@@H]1CN([C@H](C)CO)C(=O)c2cccc(NS(=O)(=O)c3ccccc3)c2O[C@@H]1CN(C)C(=O)Nc1ccccc1	-7.0	.
C[C@H](CO)N1C[C@H](C)[C@H](CN(C)C(=O)Nc2ccc3c(c2)OCO3)Oc2c(NC(=O)Nc3cccc4ccccc34)cccc2C1=O	-1.2	.
Cc1ccc(S(=O)(=O)Nc2cccc3c2O[C@H](CN(C)C(=O)Nc2ccccc2)[C@@H](C)CN([C@@H](C)CO)C3=O)cc1	4.0	.
CNC(=O)NC(=O)CSc1nnc(-c2ccncc2)n1Cc1ccccc1	5.6	-0.4
C[C@@H]1CN([C@@H](C)CO)C(=O)c2cc(NC(=O)CCC(F)(F)F)ccc2O[C@H]1CN(C)C	-3.6	0.8
CC(C)NC(=O)N(C)C[C@@H]1Oc2c(NS(C)(=O)=O)cccc2C(=O)N([C@@H](C)CO)C[C@@H]1C	0.7	.
CCOC(=O)C(C)n1cnc2c(cnn2-c2ccc(F)cc2)c1=O (stereo unspecified)	3.5	-0.5
COc1ccc(OC)c(C2c3cccn3CCN2C(=S)NC(C)(C)C)c1 (stereo unspecified)	-3.0	1.5
COc1ccc(C)cc1S(=O)(=O)N1CCN(C)CC1	-1.2	0.4
O=C(COc1ccc2ccccc2c1Br)NCCC1=CCCCC1	-4.3	-0.9
Cn1c(CN2C(=O)CSc3ccc(C(F)(F)F)cc32)nnc1SCc1ccccc1	0.2	0.2
CSc1nccc(-c2c(-c3ccc(Cl)cc3)noc2C)n1	-1.0	2.3
C[C@H]1CN([C@@H](C)CO)C(=O)c2cccc(NC(=O)c3ccc(-c4nccs4)cc3)c2O[C@H]1CN(C)Cc1ccc(C(=O)O)cc1	-1.9	.
C[C@H]1CN([C@@H](C)CO)C(=O)c2cc(NS(=O)(=O)c3ccc(Cl)cc3)ccc2O[C@H]1CN(C)S(=O)(=O)c1ccc(Cl)cc1	-5.1	-0.1
C[C@H](CO)N1C[C@H](C)[C@@H](CN(C)Cc2ccccc2)Oc2c(NC(=O)Nc3ccc4c(c3)OCO4)cccc2C1=O	-4.7	.
CC(C)NC(=O)c1cccc(Cl)c1	1.1	1.2
O=S(=O)(c1ccccc1)N1CCN(C(c2ccccc2)c2ccccc2)CC1	-0.8	-0.5
C[C@H]1CN([C@@H](C)CO)C(=O)c2cc(NC(=O)Cc3cn(C)c4ccccc34)ccc2O[C@@H]1CN(C)S(C)(=O)=O	-2.7	0.1
COc1ccc(C2=CC(c3ccccc3)SC(N)=N2)cc1 (stereo unspecified)	-4.9	-0.3
C=C1C(=O)O[C@H]2C1[C@H](OC(=O)/C(C)=C/CO)C/C(C)=C\CC[C@@]1(C)OC21 (stereo partly specified)	-6.9	-0.1
CSCCn1c(-c2ccccc2)cc(C(=O)N2CCCC2)c1C	2.4	0.0
C[C@@H]1CN([C@@H](C)CO)C(=O)c2cccc(NS(=O)(=O)c3cn(C)cn3)c2O[C@@H]1CN(C)S(=O)(=O)c1ccc(Cl)cc1	-2.3	.

Three of these compounds in a different format.
Every second line gives: BJeLR viability, A1 inh
> CC(C)NC(=O)c1cccc(Cl)c1
  1.1, 1.2
> O=S(=O)(c1ccccc1)N1CCN(C(c2ccccc2)c2ccccc2)CC1
  -0.8, -0.5
> C[C@H]1CN([C@@H](C)CO)C(=O)c2cc(NC(=O)Cc3cn(C)c4ccccc34)ccc2O[C@@H]1CN(C)S(C)(=O)=O
  -2.7, 0.1

Profiles, quoted from the list. Order of values: BJeLR viability | A1 inh
Results for `C[C@@H]1CN([C@H](C)CO)C(=O)c2cccc(NS(C)(=O)=O)c2O[C@@H]1CN(C)S(C)(=O)=O` = 1.6 | .
Results for `C[C@H](CO)N1C[C@H](C)[C@@H](CN(C)Cc2ccccc2)Oc2c(NC(=O)Nc3ccc4c(c3)OCO4)cccc2C1=O` = -4.7 | .
Results for `CC(C)NC(=O)N(C)C[C@H]1Oc2ccc(NC(=O)Nc3cccc4ccccc34)cc2C(=O)N([C@@H](C)CO)C[C@H]1C` = -1.1 | -0.7
Results for `CCOC(=O)C1=NNCC1C(=O)OCC` (stereo unspecified) = -1.1 | -0.8
Results for `CNC(=O)NC(=O)CSc1nnc(-c2ccncc2)n1Cc1ccccc1` = 5.6 | -0.4

(continued)
SMILES	BJeLR viability	A1 inh
Cc1ccc(S(=O)(=O)Nc2ccc3c(c2)C(=O)N([C@H](C)CO)C[C@@H](C)[C@@H](CN(C)C(=O)Nc2ccccc2)O3)cc1	-0.8	0.0
Cc1nc(-c2c(C(F)(F)F)oc3cc(O)ccc3c2=O)cs1	-0.6	0.2
CCOc1ccc(Oc2cc(C)nc(SC)n2)nn1	-2.8	.
C[C@@H]1CN([C@H](C)CO)C(=O)c2cccc(NC(=O)c3ccc(-c4nccs4)cc3)c2O[C@H]1CN(C)Cc1ccc(Cl)c(Cl)c1	-2.0	.
COc1ccc(NC(=O)N(C)C[C@@H]2Oc3ccc(NC(=O)CCC(F)(F)F)cc3C(=O)N([C@@H](C)CO)C[C@@H]2C)cc1	-0.3	0.3
O=C(NCCSc1c(-c2ccccc2)[nH]c2ccccc12)c1ccc(N2C(=O)CCC2=O)cc1	-0.9	.
COC(=O)c1c(C)nc(C)c2c(=O)oc3ccccc3c12	-1.3	-0.2
CC(=O)SC1CC(=O)N(c2ccc(C(C)(C)C)cc2)C1=O (stereo unspecified)	4.8	-1.7
CCOC(=O)c1ncoc1-c1ccc(Cl)cc1Cl	0.0	-0.2
CCCCN(Cc1ccco1)C(=O)c1cc2c(=O)oc3ccc(C)cc3c2s1	-2.0	.
COC(=O)c1cc(S(=O)(=O)NCCc2ccccc2)cn1C	-3.7	-0.3
CC(Nc1nc(Nc2ccc(F)cc2)nc(SCC(=O)Nc2ccc(F)cc2)n1)c1ccccc1 (stereo unspecified)	-4.1	0.1
C[C@@H]1CN([C@@H](C)CO)C(=O)c2cc(NC(=O)Cc3ccccc3)ccc2O[C@@H]1CN(C)CC1CC1	1.5	-0.1
Cc1ccccc1N=Cc1c(O)[nH]c2ccccc12	5.2	.
CC(=O)O[C@@H]1[C@@H](O)[C@H](C)O[C@@H](Oc2c(-c3ccc(O)cc3)oc3cc(O[C@@H]4O[C@@H](C)[C@H](O)[C@@H](O)[C@H]4O)cc(O)c3c2=O)[C@@H]1O	-9.9	0.1
COc1ccc(-n2c(CC#N)nnc2SCc2c(C)c(C)c(C)c(C)c2C)cc1	-0.8	-0.5
O=C(CC1CCCCC1)NCc1cn2ccsc2n1	-4.8	-0.2
COc1ccc(NC(=O)N(C)C[C@H]2Oc3ccc(NC(=O)C4CCCCC4)cc3C(=O)N([C@H](C)CO)C[C@@H]2C)cc1	1.4	0.4
Cc1noc(C)c1NC(=O)Nc1ccc2c(c1)C(=O)N([C@@H](C)CO)C[C@@H](C)[C@@H](CN(C)Cc1ccc(Cl)c(Cl)c1)O2	1.5	0.1
O=C(NC(=S)N1CCCCC1)c1ccccc1	1.8	-0.3
Clc1ccc(-c2nnc(-c3ccc(Cl)cc3)o2)cc1	2.6	-0.7
COc1ccc(-c2coc3c(O)c(OC)ccc3c2=O)cc1	-0.2	-5.1
Cc1cc2c([nH]c3ccccc32)c2c1OC(C)(C)C=C2	-7.9	-1.4
CC1CCC2(C)C(C(=O)O)=CCCC2C1(C)CCC1=CC(O)OC1=O (stereo unspecified)	6.5	-0.3
CC1=C(C(=O)Nc2ccc(C(=O)NCc3ccc4c(c3)OCO4)cc2)SCCO1	1.5	1.8
(next part)
SMILES	BJeLR viability	A1 inh
CCC1=NC(C(F)(F)F)(C(F)(F)F)C2=C(CC(C)(C)CC2=O)N1Cc1ccccc1	-1.1	0.5
O=C(Nc1ccc(Cl)cc1)c1ccc(CSC2=NCCS2)cc1	5.7	-1.8
C[C@H]1CN([C@@H](C)CO)C(=O)c2cc(NC(=O)Nc3ccccc3)ccc2O[C@@H]1CN(C)S(=O)(=O)c1ccc(Cl)cc1	3.4	-0.5
C[C@H]1CN([C@@H](C)CO)C(=O)c2cccc(NC(=O)NC3CCCCC3)c2O[C@@H]1CN(C)S(=O)(=O)c1cn(C)cn1	-0.1	.
CC(C)(C)C(=O)Nc1ccc2c(c1)C(=O)C(=O)c1ccccc1-2	132*	-2.0
C[C@H](CO)N1C[C@H](C)[C@@H](CN(C)CC2CC2)Oc2c(NC(=O)C3CCCCC3)cccc2C1=O	-2.2	.
C[C@H]1CN([C@@H](C)CO)C(=O)c2cccc(NS(=O)(=O)c3cccs3)c2O[C@H]1CN(C)C(=O)Nc1ccc(C(F)(F)F)cc1	1.3	.
Cc1c(C)n(CC(O)CNC2CCCCC2)c2ccccc12 (stereo unspecified)	-0.8	-1.6
O=C(NCC[C@@H](CNC(=O)c1cccc(O)c1O)NC(=O)c1cccc(O)c1O)c1cccc(O)c1O	29	0.5
COc1ccc(NC(=O)Nc2cccc3c2O[C@H](CN(C)S(=O)(=O)c2ccc(F)cc2)[C@H](C)CN([C@@H](C)CO)C3=O)cc1	0.9	.
Cc1cc(NC(=O)CCC2CCCCC2)no1	-1.1	0.0
Cc1noc(C)c1S(=O)(=O)N(C)C[C@@H]1Oc2c(NC(=O)c3ccc(-c4nccs4)cc3)cccc2C(=O)N([C@@H](C)CO)C[C@H]1C	1.6	.
O=C(CSc1nc2ccccc2c(=O)n1-c1ccc(Cl)c(Cl)c1)N1CCOCC1	4.6	0.0
CCN(C(=S)Nc1ccc(C)cc1)c1ccccc1	-0.3	0.0
O=C(c1cnc2n(c1=O)CCS2)N(c1ccccc1)C1CCCCC1	1.3	0.0
O=C1c2ccccc2-c2nn(CC(=O)N3CCOCC3)c3cccc1c23	-1.8	.
C=CCOc1ccc2c(=O)c(Oc3cccc(C)c3)coc2c1	-0.7	.
COc1ccc2c(OC)ccc3c2c1C=CC3=O	-0.3	0.3
